# ClpP mod – qHTS Assay for Activators of ClpP; Potency, µM (titrated, usually from 57.5 µM), for the others: at the highest dose activity change, negative = active; purified B. subtilis ClpP, FRET peptide cleavage, 20 min; actives 1.9% (n = 340,000); AID 651965, 2013; ATP-dependent Clp protease proteolytic subunit (Bacillus subtilis (strain 168)), P80244; active = well fitted falling curve with a large enough effect; inconclusive = small, poorly fitted or top-dose-only effect; inactive = no such curve, though single readings can be large or run the other way; note: potency is the fitted concentration of half-maximal effect; the source files actives as falling curves though it sought activators and does not explain the sign; nearly all actives have a fitted effect of over 65% in size; many hits overshoot -100%
# Target sequence (P80244 whole entry, looked up): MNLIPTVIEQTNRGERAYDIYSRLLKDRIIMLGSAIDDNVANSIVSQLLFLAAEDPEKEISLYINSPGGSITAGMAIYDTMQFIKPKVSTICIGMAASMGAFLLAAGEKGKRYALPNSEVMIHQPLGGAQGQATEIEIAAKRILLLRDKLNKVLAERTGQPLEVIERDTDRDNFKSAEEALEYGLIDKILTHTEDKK
#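 Buffer: 100 mM Tris/HCl pH8, 100 mM KCl, 0.05% low protease BSA, 2.5% glycerol, 0.01% Tween-20. ClpP 10 microg/mL final; 20 min RT; delta FRET normalized to ADEP and DMSO controls.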
# Menin MLL FP FL – displaces fluorescein MLL peptide from human menin; 290,000 tested, under 10 active; Fluorescence polarization, fluorescein-MLL peptide displacement from menin; FP activity change, % at 61.4 µM; inconclusive = falling polarisation curve, or a change in total fluorescence; inactive = total fluorescence flat and polarisation flat or rising; no compound was filed as active; the % refers to the polarisation; negative = inhibition;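 note: % of control where 0% means no effect; inhibitors lower the polarisation; unlabelled MLL peptide was the positive control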
# TRPV1 potentiator – human TRPV1 potentiation | Q8NER1 | TRPV1-expressing cells, Fluo-8 calcium influx, capsaicin EC20 potentiation; host cell line not named in the record; control for the full effect not named in the record | potentiation, % at 8.33 µM | actives 0.02% (n = 320,000) | AID 540277; active means potentiation above 80%; inconclusive means 30% to 80%; inactive means below 30%; note: 0% is about no effect
# Target sequence (Q8NER1 whole entry, looked up): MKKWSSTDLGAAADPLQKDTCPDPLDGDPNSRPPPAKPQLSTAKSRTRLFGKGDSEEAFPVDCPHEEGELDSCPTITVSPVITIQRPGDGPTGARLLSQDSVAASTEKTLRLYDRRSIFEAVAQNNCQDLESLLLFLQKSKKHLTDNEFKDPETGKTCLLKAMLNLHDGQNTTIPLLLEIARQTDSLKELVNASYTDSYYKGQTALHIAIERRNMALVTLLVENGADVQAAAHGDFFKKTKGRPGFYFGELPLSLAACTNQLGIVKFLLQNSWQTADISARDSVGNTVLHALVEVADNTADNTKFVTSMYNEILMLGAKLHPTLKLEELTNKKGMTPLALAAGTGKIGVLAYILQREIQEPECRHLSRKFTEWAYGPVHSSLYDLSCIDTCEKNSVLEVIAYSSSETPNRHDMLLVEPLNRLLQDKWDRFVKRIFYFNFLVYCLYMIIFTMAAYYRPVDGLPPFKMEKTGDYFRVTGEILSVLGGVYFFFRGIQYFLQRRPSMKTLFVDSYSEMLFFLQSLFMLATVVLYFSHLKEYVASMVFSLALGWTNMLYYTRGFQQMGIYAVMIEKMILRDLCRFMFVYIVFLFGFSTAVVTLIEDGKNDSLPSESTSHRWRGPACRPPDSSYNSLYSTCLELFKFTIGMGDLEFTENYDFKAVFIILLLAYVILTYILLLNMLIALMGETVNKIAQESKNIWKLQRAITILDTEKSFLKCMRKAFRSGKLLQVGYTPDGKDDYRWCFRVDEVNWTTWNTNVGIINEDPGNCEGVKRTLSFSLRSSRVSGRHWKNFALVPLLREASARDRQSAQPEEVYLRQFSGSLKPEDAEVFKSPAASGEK
#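 Fluo-8 calcium influx in TRPV1-expressing cells, kinetic read (ex 480/em 520 nm). Compound added and read 3 min for agonist activity, followed by capsaicin at EC20 final and 2 min further read for enhancement.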
# Sfp PPTase inh – Sfp phosphopantetheinyl transferase inhibition; actives 3.5% (n = 310,000); Biochemical Sfp PPTase activity, qHTS; Potency, µM, for inactives: max response, negative = inhibition, hits mostly inhibitors; active = well fitted inhibition curve with a large enough effect; inconclusive = small, poorly fitted or top-dose-only effect, or another doubt; inactive = no such curve, though single readings can be large or run the other way;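 note: the enzyme is Sfp with the accession as filed and its product quenches rhodamine fluorescence; potency is the fitted concentration of half-maximal effect; 0% = enzyme reaction without inhibitor and -100% = no enzyme wells; top concentration of the series not given in the record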
#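 Fluorescence-quenching assay: 15 nM Sfp-PPTase preincubated 15 min at room temperature with compound, then 5 uM rhodamine-CoA and 12.5 uM BHQ-2-labelled YbbR peptide added. Fluorescence (ex 525/em 598 nm) read at start and after 30 min; difference gives rate.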
# gsp antagonist – gsp mutant antagonism; gsp-mutant cells, cAMP HTRF, 30 min; control for the full effect not named in the record; Potency, µM (series often up to 76.9 µM), without a hit: at the highest dose activity change, negative = inhibition, usual class: inhibitors; actives 0.4% (n = 340,000); active = falling curve of any shape with a large fitted effect; inconclusive = falling curve, mostly with a smaller effect; inactive = flat or rising curve; cell line not stated here;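 note: intracellular cAMP measured with PDE inhibitor Ro 20-1724 present during compound exposure; potency is the fitted concentration of half-maximal effect; % is set by controls: 0 for no effect and ±100 for the full control effect; nearly all actives have a fitted effect of over 65% in size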
#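 HTRF cAMP measurement after 30 min RT detection following 30 min, 37C compound treatment alongside […] (added as 300 uM solution) in G418-selected cells seeded at 2000/well and grown 16–24 h.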
# CtBP-E1A blk – blocks the CtBP interaction with E1A. AlphaScreen GST-E1A/His-CtBP binding, 1536-well; stronger effect = lower value; control for the full effect not named in the record. activity change, % (test concentration not listed). actives 0.49% (n = 340,000). AID 651724; in the data active means activity change below about -65%; inconclusive means about -30% to -65%; inactive means above about -30%; note: % is set by controls: 0 for no effect and ±100 for the full control effect; compound concentration not given in the record
#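 Homogeneous bead-based format: GST-tagged E1A captured on glutathione donor beads, His-tagged CtBP on nickel acceptor beads; compounds precede bead addition by 2 h at 37 °C.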
# gsp ag – gsp mutant agonism. AID 624287. actives 0.13% (n = 340,000). gsp mutant cells, cAMP HTRF, 30 min; control for the full effect not named in the record. Potency, µM (top dose mostly 76.9 µM), inactives show at the highest dose activation (cAMP increase), most hits filed as activators; active = well fitted activation curve with a large enough effect; inconclusive = small, poorly fitted or top-dose-only effect, or another doubt; inactive = no such curve, though single readings can be large or run the other way; cell line not stated here;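 note: phosphodiesterase inhibitor Ro 20-1724 added with compounds to block cAMP breakdown; potency is the fitted concentration of half-maximal effect; nearly all actives have a fitted effect of over 60% in size; about a fifth of the inactives were tested at one dose only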
#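 Cells in DMEM/10% FBS with G418 were pretreated with compounds in DMSO plus […] (300 uM stock) for 30 min at 37C. cAMP was measured by HTRF (cAMP-d2 plus anti-cAMP antibody-K) after 30 min at room temperature.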
# Starred values were filed as active, the others as inactive; ? = inconclusive; . = no result given; [ ] = another dose, or the depositor's remark.
nr	SMILES	gsp ag	ClpP mod	CtBP-E1A blk	gsp antagonist
1	O=C(NNC(=O)c1cc2cc3ccccc3nc2s1)c1ccc(F)cc1	-1.1%	?	2.4	?
2	CCOC(=O)N1CCC(Nc2nc3ccccc3nc2NS(=O)(=O)c2ccc(Cl)cc2)CC1	-1.9%	-9.4%	4.3	?
3	O=c1cc(NCCc2ccccc2)c2ccccc2o1	20.3%[15.4 µM]	.	1.6	-58.0%
4	CCCOc1ccc(CNC(=O)Cn2ncc3ccccc32)cc1	-9.5%	-6.4%	-13.9	-5.7%
5	CCCCC(NC(=O)c1ccc(Cl)cc1)C(=O)O (centres undefined)	16.6%	0.3%	7.9	1.7%
6	C=CCn1c(SCc2ccc(C#N)cc2)nnc1-c1cccc(OC)c1	3.0%	-3.2%	-1.1	1.0%
7	CCOP(=O)(OCC)c1nc(-c2cccc3ccccc23)oc1N1CCCCC1	-3.2%	4.1%	29.2	-24.3%
8	O=C(COC(=O)c1ccccc1C(=O)N1CCN(c2ccc(F)cc2)CC1)NCc1ccccc1	-12.8%	-0.3%	-1.0	-12.9%
9	COc1cccc(NC(=O)CN(C)C(=O)c2ccc(NC3CC3)c([N+](=O)[O-])c2)c1	?	-1.8%	11.0	1.9%
10	Cc1ccc(C)c(OCCC(=O)OCC(=O)Nc2cc(S(=O)(=O)N3CCCCC3)ccc2C)c1	-4.7%[15.4 µM]	0.4%	-2.7	5.3%
11	COc1cc(C(=O)Nc2nnc(-c3sccc3C)s2)cc(OC)c1OC	-3.9%	?	-0.8	5.1%
12	CCOCCCNC(=O)N[C@@H](C)C(=O)OC	12.3%	-1.2%	2.9	2.2%
13	Cn1c(SCC(=O)N/N=C/c2cc([N+](=O)[O-])ccc2O)nnc1-c1ccccc1	-8.1%[15.4 µM]	.	?	-21.2%
14	CCCCN(CC)CCNC(=O)CN(C)S(=O)(=O)c1ccc2c(c1)c(=O)n(C)c(=O)n2C	-1.9%	-9.2%	0.9	10.3%
15	CCOC(=O)C1CCN(C(=O)c2c(-c3c(Cl)cccc3Cl)noc2C)CC1	-2.7%	-8.0%	-0.6	-8.2%

nr	Sfp PPTase inh	Menin MLL FP FL	TRPV1 potentiator
1	1.3%	1.8	-7.3
2	30.9%[activator]	1.9	7.9
3	-0.7%	-4.1	-9.5
4	15.7%	-5.9	.
5	15.0%	-0.7	-29.3
6	11.0%	1.9	-21.6
7	-22.5%	2.2	-5.9
8	11.9%	5.0	-19.4
9	.	.	13.8
10	.	.	.
11	4.3%	2.5	3.9
12	18.8%	-0.3	-4.8
13	18.1%	0.0	?
14	-6.5%	2.5	7.4
15	13.9%	2.6	15.2

# Whole records, looked up by structure:
# `C=CCn1c(SCc2ccc(C#N)cc2)nnc1-c1cccc(OC)c1` as listed: gsp ag = 3.0%; ClpP mod = -3.2%; CtBP-E1A blk = -1.1; gsp antagonist = 1.0%; Sfp PPTase inh = 11.0%; Menin MLL FP FL = 1.9; TRPV1 potentiator = -21.6
# `Cc1ccc(C)c(OCCC(=O)OCC(=O)Nc2cc(S(=O)(=O)N3CCCCC3)ccc2C)c1` as listed: gsp ag = -4.7%[15.4 µM]; ClpP mod = 0.4%; CtBP-E1A blk = -2.7; gsp antagonist = 5.3%; Sfp PPTase inh = .; Menin MLL FP FL = .; TRPV1 potentiator = .

# The listing picks up with the four entries that preceded the break.
nr	SMILES	gsp ag	ClpP mod	CtBP-E1A blk	gsp antagonist
12	CCOCCCNC(=O)N[C@@H](C)C(=O)OC	12.3%	-1.2%	2.9	2.2%
13	Cn1c(SCC(=O)N/N=C/c2cc([N+](=O)[O-])ccc2O)nnc1-c1ccccc1	-8.1%[15.4 µM]	.	?	-21.2%
14	CCCCN(CC)CCNC(=O)CN(C)S(=O)(=O)c1ccc2c(c1)c(=O)n(C)c(=O)n2C	-1.9%	-9.2%	0.9	10.3%
15	CCOC(=O)C1CCN(C(=O)c2c(-c3c(Cl)cccc3Cl)noc2C)CC1	-2.7%	-8.0%	-0.6	-8.2%
16	COc1cccc(C(=O)OCC(=O)c2c[nH]c3ccccc23)c1OC	-52.4%[inhibitor]	-5.1%	-22.1	-9.8%
17	COC(=O)c1ccc(NC(=O)c2ccccc2N(C)S(C)(=O)=O)cc1	13.1%	1.3%	-0.8	1.0%
18	COc1ccccc1Cn1c(=O)c2ccccc2n2c(SCC(=O)N3CCCCC3)nnc12	16.0%	0.4%	1.7	27.2%
19	O=C(Nc1cccnc1)C1CCC(CNS(=O)(=O)c2cccc3nsnc23)CC1 (centres undefined)	-21.9%[15.4 µM]	.	0.1	-0.3%
20	CCC(CC)NC(=O)CSc1ccc(S(=O)(=O)N2CCCCC2)cn1	-3.3%	-2.0%	-23.4	7.8%
21	COc1ccc(S(=O)(=O)N2N=C(c3cccc(NS(C)(=O)=O)c3)CC2c2ccco2)cc1 (centres undefined)	4.4%	-1.5%	.	-2.8%
22	CCCn1c(Nc2ccc(Cl)cc2)nc2ccccc21	-28.0%	-9.3%	-10.9	-2.6%
23	O=C(Nn1c(Cc2cccs2)nc2ccccc2c1=O)c1cccs1	?	-0.8%	4.6	-2.1%
24	Cc1ccc(C(=O)NNC(=O)c2cccc3ccccc23)cc1	10.3%[15.4 µM]	-2.0%	-1.5	2.2%
25	CNC(=O)CN(C)S(=O)(=O)c1ccc(F)cc1	-18.7%	-0.3%	-4.2	12.7%
26	COc1ccc(N2CC(C)Cn3c2nc2c3c(=O)n(Cc3ccccc3F)c(=O)n2C)c(OC)c1 (centres undefined)	17.5%	1.3%	-6.2	-17.6%
27	Cc1ccc(CC(=O)Nc2ccc(C(=O)N3CCCCC3)cc2)cc1	-4.1%[15.4 µM]	.	-9.3	8.0%
28	Cc1noc(NS(=O)(=O)c2ccc(NC(=O)CS(=O)(=O)c3ccccc3)cc2)c1C	7.4%	0.4%	0.0	-2.6%
29	Cc1cc(N2C(=O)C(O)=C(C(=O)c3cccs3)C2c2ccccc2)no1 (centres undefined)	?	-2.1%	-5.5	-7.5%
30	O=C(CC1C(=O)OCC2CCCCN21)Nc1ccccc1C(F)(F)F (centres undefined)	-30.0%[15.4 µM]	.	-19.7	.

nr	Sfp PPTase inh	Menin MLL FP FL	TRPV1 potentiator
12	18.8%	-0.3	-4.8
13	18.1%	0.0	?
14	-6.5%	2.5	7.4
15	13.9%	2.6	15.2
16	.	.	-4.4
17	-0.8%	-2.6	5.0
18	-5.6%	2.1	-8.2
19	11.5%	0.8	-9.1
20	.	.	5.0
21	-24.1%	.	-5.3
22	12.6%	1.5	9.5
23	11.5%	3.6	6.6
24	.	.	.
25	18.1%	1.2	3.4
26	?	-0.4	-21.2
27	-2.2%	.	-11.3
28	9.5%	3.9	?
29	5.6%	0.6	1.5
30	-88.6%	-0.1	1.1

# More records.
nr	SMILES	gsp ag	ClpP mod	CtBP-E1A blk	gsp antagonist
31	COc1cc(CN2CCNC(=O)C2CC(=O)N(C)CCC2CCOCC2)cc(OC)c1 (centres undefined)	-40.5%[inhibitor]	-15.7%	-17.0	15.9%
32	CCCn1nc(C(=O)OCC(=O)NC(C)c2ccccc2)c2ccccc2c1=O (centres undefined)	-10.1%[15.4 µM]	.	2.8	5.1%
33	CCCN1C2CCCC1CC(NC(=O)c1cccc([N+](=O)[O-])c1)C2 (centres undefined)	4.7%[15.4 µM]	28.2µM*	-15.2	-1.4%
34	COc1ccc(-c2csc(NC(=O)c3nc(-c4ccccc4)oc3C)n2)cc1	4.6%	12.6%	-5.8	1.8%
35	COc1c([N+](=O)[O-])c(=O)n(-c2ccccc2)c2ccccc12	0.9%	1.0%	-0.6	7.8%
36	COc1ccc(S(=O)(=O)N2CCC(C)CC2)cc1Br	-18.1%	0.6%	7.1	-15.6%
37	Cc1nc(S/C(=C/c2ccc(OCc3ccc(C(=O)O)cc3)cc2)C(=O)O)n[nH]1	-7.2%[15.4 µM]	.	-6.0	-6.1%
38	CCCC(=O)Nc1ccc(C(=O)NNC(=O)c2cccc([N+](=O)[O-])c2)cc1	-12.6%[15.4 µM]	.	.	9.6%
39	Cc1ccccc1CNC(=O)CC1C(=O)NCCN1CC1CCCCC1 (centres undefined)	-0.8%[15.4 µM]	.	-15.9	2.1%
40	CC1CN(c2nc(-c3ccccc3)nc3ccccc23)CC(C)O1 (centres undefined)	-44.0%[inhibitor]	-13.2%	-4.4	-15.9%
41	O=C(NCCN1CCOCC1)c1ccc2c(c1)N(Cc1ccc(Cl)cc1)CCS2	?	3.3%	24.4	-14.7%
42	COc1ccccc1C(=O)N1CCN(Cc2nc(CC3CC3)no2)CC1	-0.9%	.	15.2	-0.6%
43	Cn1c(=O)c(=O)n(C)c2cc(S(=O)(=O)N3CCc4ccccc43)ccc21	15.0%	-0.7%	7.6	-8.3%
44	COC(=O)c1ccc(NC(=O)c2ccc3nc(C)sc3c2)cc1	-6.3%[15.4 µM]	1.3%	1.5	15.9%
45	Brc1ccc(OCCN2CCOCC2)cc1	-6.4%[15.4 µM]	0.2%	10.1	14.4%
46	CC(=O)Oc1c(I)cc(I)cc1C(=O)Nc1ccc(Cl)cc1	6.6%[15.4 µM]	-3.0%	-6.1	35.5µM*
47	CCOC(=O)NC(=O)c1cn(Nc2ccccc2C(F)(F)F)c(=O)[nH]c1=O	2.0%[15.4 µM]	.	8.2	-7.9%

nr	Sfp PPTase inh	Menin MLL FP FL	TRPV1 potentiator
31	8.7%	.	?
32	-10.6%	-1.8	-8.9
33	4.2%	6.1	11.9
34	-0.1%	4.3	-1.1
35	17.8µM*	1.3	6.1
36	-2.0%	1.9	-13.0
37	5.1%	-1.1	-1.0
38	-28.3%	1.7	-4.5
39	4.4%	-0.1	-8.6
40	-10.5%	0.1	-3.5
41	-7.5%	4.5	-20.2
42	11.5%	1.9	9.0
43	9.6%	-0.7	-2.1
44	13.8%	-0.2	-9.6
45	-13.9%	1.2	-1.4
46	16.7%	.	2.4
47	8.0%	5.2	25.1
